# SARS PLpro yeast: blocks SARS-CoV papain-like protease in a yeast assay. S. cerevisiae expressing SARS-CoV PLpro, growth rescue; control for the full effect not named in the record. Potency, µM (titrated, usually from 32.9 µM), without a hit: at the top dose activity, positive = growth rescue. actives 0.19% (n = 330,000); active means well fitted rising curve with a large enough effect; inconclusive means small, poorly fitted or top-dose-only effect; inactive means no such curve, though single readings can be large or run the other way; further: 0% is about no effect; nearly all actives have a fitted effect of over 55% in size; growth read by luminescence after 48 h
# Cruzain noTriton: inhibitors of Trypanosoma cruzi cruzain without detergent | P25779 | purified cruzain, Z-FR-AMC fluorescence, no detergent | Potency, µM, for the others: max response, negative = inhibition, hits mostly inhibitors | actives 2.3% (n = 200,000) | AID 1476;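 further: plate controls were enzyme without inhibitor for no effect and buffer without enzyme for full effect; nearly all actives have a fitted effect of over 40% in size; top concentration of the series not given in the record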
# Target sequence (P25779 123-467 limits assumed): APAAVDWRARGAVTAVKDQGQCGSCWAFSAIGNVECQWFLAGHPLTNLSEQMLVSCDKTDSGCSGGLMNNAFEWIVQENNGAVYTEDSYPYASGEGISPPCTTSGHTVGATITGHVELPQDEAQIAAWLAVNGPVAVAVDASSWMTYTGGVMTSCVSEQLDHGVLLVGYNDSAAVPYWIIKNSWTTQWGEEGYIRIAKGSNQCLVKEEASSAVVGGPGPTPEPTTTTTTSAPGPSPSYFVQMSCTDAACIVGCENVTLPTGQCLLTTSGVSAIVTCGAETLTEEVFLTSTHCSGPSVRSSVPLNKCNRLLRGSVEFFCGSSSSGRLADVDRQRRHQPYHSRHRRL
#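 Detergent-free condition (0.00005% Triton X-100) in acetate buffer pH 5.5 with DTT. 1.5 nM enzyme and compound were pre-mixed 15 min, then 2 uM Z-FR-AMC substrate added; reaction progress from fluorescence change between first and third reads (60 s).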
# Marburg entry inh: inhibitors of Marburg virus binding or cell entry; AID 540276; Potency, µM (series often up to 37.8 µM), for the others: at the top dose activity change, negative = inhibition, most hits filed as inhibitors; Marburg virus pseudotyped entry inhibition, cell reporter; control for the full effect not named in the record; about a third of the inactives were read at about 46 µM; actives 1.8% (n = 300,000); active = well fitted inhibition curve with a large enough effect; inconclusive = small, poorly fitted or top-dose-only effect, or effect the other way; inactive = flat fitted curve, though single readings scatter; tested in HEK293 cells; about a fifth of its hits are not listed in these tables; further: on the % scale 0 is the no-effect control and ±100 the full control effect; luciferase read-out
# 2A StopGo: FMDV 2A StopGo reporter, luciferase signal; human cells with a luciferase reporter of 2A StopGo recoding; control for the full effect not named in the record; Potency, µM (titrated, usually from 57.9 µM), for the others: at the top dose signal change, negative = less light; actives 1.2% (n = 410,000); AID 1159524; active = well fitted falling curve with a large enough effect; inconclusive = small, poorly fitted or top-dose-only effect; inactive = no such curve, though single readings can be large or run the other way; tested in HEK293T cells; further: on the % scale 0 is the no-effect control and ±100 the full control effect; nearly all actives have a fitted effect of over 45% in size; luciferase light after 4 h
# NS1 function inh: inhibitors of influenza NS1 protein function; S. cerevisiae slowed by influenza A NS1, growth recovery by OD600; Potency, µM (titrated, usually from 46.1 µM), inactives show at the top dose activity, positive = more growth; actives 0.4% (n = 270,000); AID 2326; active means well fitted rising curve with a large enough effect; inconclusive means small, poorly fitted or top-dose-only effect; inactive means no such curve, though single readings can be large or run the other way; further: nearly all actives have a fitted effect of over 50% in size
#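 Recovery from NS1-induced slow growth read by OD600 in budding yeast switched to galactose assay medium (pH 6.0, -URA) at 1:100 dilution. Compound 23 nl per well; the matching strain lacking NS1 serves as control.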
# Cruzain inh Det: blocks cruzain activity in presence of Triton detergent. Potency, µM, inactives show max response, negative = inhibition, usual class: inhibitors. P25779. purified cruzain, Z-FR-AMC fluorescence, 0.01% Triton. AID 1478. actives 0.43% (n = 200,000);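 further: plate controls were neutral wells for no effect and buffer without enzyme for full effect; nearly all actives have a fitted effect of over 40% in size; top concentration of the series not given in the record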
#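 Z-FR-AMC hydrolysis (2 uM substrate) by cruzain (1.5 nM) monitored kinetically at ex 360/em 450 nm after 15 min room-temperature compound exposure; 0.01% Triton X-100, pH 5.5, 5 mM DTT.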
# Lassa entry inh: inhibitors of Lassa virus binding or cell entry; Lassa virus pseudotype entry inhibition, cell reporter; control for the full effect not named in the record; Potency, µM (top dose mostly 37.9 µM), for inactives: at the highest dose activity change, negative = inhibition, actives largely listed as inhibitors; actives 1.2% (n = 300,000); AID 540256; active means well fitted inhibition curve with a large enough effect; inconclusive means small, poorly fitted or top-dose-only effect, or effect the other way; inactive means flat fitted curve, though single readings scatter; tested in HEK293 cells; further: on the % scale 0 is the no-effect control and ±100 the full control effect; nearly all actives have a fitted effect of over 50% in size; luciferase read-out
# RE007 growth inh: less growth of the S. pombe RE007 Vpr strain; actives 0.21% (n = 360,000); Potency, µM (series often up to 92.2 µM), inactives show at the top dose activity change, negative = less growth; S. pombe RE007 Vpr strain, BacTiter-Glo ATP luminescence, 24 h; control for the full effect not named in the record; active = well fitted falling curve with a large enough effect; inconclusive = small, poorly fitted or top-dose-only effect; inactive = no such curve, though single readings can be large or run the other way;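 further: on the % scale 0 is the no-effect control and ±100 the full control effect; nearly all actives have a fitted effect of over 50% in size; the assay follows cell death caused by Vpr and the record does not say whether a fall means rescue or toxicity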
#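 Fission yeast RE007 carrying one integrated HIV-1 vpr copy, seeded at OD 0.01 in PMG+AL medium with 23 nL pinned compound. Grown 24 h at 30 degrees; viability read by BacTiter-Glo luminescence after 5 min.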
# The depositor's hits bear a star; ? = inconclusive; . = not tested or not shown; & = joins results of further samples; [ ] = dose if it differs, or a comment. Unless noted, the call rests on the fitted dose curve; in most records, active means well fitted curve in the direction sought with a large enough effect; inconclusive means small, poorly fitted or top-dose-only effect, or another doubt; inactive means no such curve, though single readings can be large; an effect the other way counts as inactive or inconclusive. Potency means the concentration at half of the fitted maximal effect.
SMILES,SARS PLpro yeast,Cruzain noTriton,Marburg entry inh,2A StopGo,NS1 function inh,Cruzain inh Det,Lassa entry inh,RE007 growth inh
COC(=O)c1ccc(/C=N/NC(=O)CC(=O)NCC(C)C)cc1,2.8%,-2.5%,-3.7%,-0.6%,0.5%,-1.3%,13.2%,3.0%
Nc1ccc(O)cc1C(=O)OCC(=O)C12CC3CC(CC(C3)C1)C2,1.7%,-21.8%,27.6%,-21.6%,1.8%,-12.6%,11.4%,8.0%
Cc1cc(C)c2cc3c(ccn3C3OC[C@H](O)[C@H](O)[C@H]3O)cc2n1 (stereo partly drawn),1.4%,-7.9%,-7.1%,-18.8%,1.1%,-1.8%,10.5%,-4.0%
COc1ccc2oc(-c3ccco3)cc(=O)c2c1,-5.8%,.,.,16.3%,-35.7%,.,.,-23.2%
COc1ccc(C(CNC(=O)C(CCSC)NC(=O)c2ccccc2Cl)N2CCOCC2)cc1 (stereo not drawn),4.9%,.,4.9%,-3.6%,.,.,-0.6%,-22.2%
CC(=O)NS(=O)(=O)c1cccnc1Nc1cccc(Cl)c1C,6.1%,-13.5%,?,3.7%,1.8%,-2.7%,5.8%,-10.2%
COc1ccc(CNC(=O)CN2CCN(c3ccc(F)cc3)CC2)cc1,-1.7%,.,.,6.4%,4.3%,.,.,-1.2%
Cn1nc(CC#N)c2c(=N)n(N)cnc21,.,.,?,-12.7%,.,.,17.3%,12.2%
CCN1CCCC1CNC(=O)c1ccccc1Cl (stereo not drawn),16.5%,-26.5%,?,-24.4%,6.5%,-0.2%,-2.3%,3.4%
O=C(Nc1ccc(Cl)cc1)c1cnn2c1NC(c1ccccc1)=CC2c1ccccc1 (stereo not drawn),.,-26.8%,.,-8.0%,.,-15.1%,15.8%[46.1 µM],.
CCN(C(=O)CN1CCCC(C)C1)c1c(N)n(Cc2ccccc2)c(=O)[nH]c1=O (stereo not drawn),2.4%,.,-0.7%,-16.5%,.,.,-1.1%,4.2%
COc1cccc(CNc2ccc3c(c2)CCC3)c1,-5.3%,?,-4.5%,.,0.9%,5.4%,4.2%,-18.7%
O=C(O)CCc1nn2c3ccccc3n(Cc3ccccc3)c2nc1=O,-0.6%,.,0.5%[46.1 µM],-12.7%,0.6%,.,0.4%[46.1 µM],8.1%
c1nnc(NC2=NCCCCC2)s1,-2.7%,-3.8%,13.1%,.,3.3%,-1.6%,-2.8%,-9.7%
CN(CCc1ccccc1)C1CCCN(S(=O)(=O)c2cccc(F)c2)C1 (stereo not drawn),-6.1%,.,?,-1.1%,9.3%,.,3.4%[46.1 µM],-8.0%
CCCOc1ccc(C(=O)Nc2cc(-c3nc4ccccc4[nH]3)ccc2C)cc1,.,-2.3%,.,-2.9%,.,-3.5%,-25.1%[46.1 µM],.
CSc1nnc(NC(=O)c2ccc(S(=O)(=O)N3CCOCC3)cc2)s1,-1.9%,.,-1.1%,36.5%[activator],6.5%,.,4.9%,9.3%
CN1CCN(C(=S)NC(=O)c2ccc(Br)cc2)CC1,0.1%,.,1.0%[46.1 µM],-8.3%,-2.1%,.,-13.3%[46.1 µM],10.4%
COc1ccccc1CNC(=O)c1c[nH]c2ccc(S(=O)(=O)Nc3cc(C)cc(C)c3)cc2c1=O,.,?,.,0.2%,.,-5.0%,-13.7%[46.1 µM],.
CCOC(=O)C1CCN(c2ncnc3c2cnn3C)CC1,1.0%,.,.,-10.8%,-2.9%,.,.,0.9%
Cc1ccc(C(=O)Nc2cc(Cl)ccc2-n2cncn2)o1,-2.1%,.,6.8%[46.1 µM],11.1%,.,.,-1.0%,-10.6%
Cc1nn(CC(=O)Nc2ccccc2)c(=O)c2ccccc12,24.2%,-12.7%,14.0%,-2.1%,-39.0%,0.7%,-23.2%,13.4%
CC(C)(C)c1cc(CCC(=O)NCCc2ccccn2)cc(C(C)(C)C)c1O,4.0%,.,-28.1%[46.1 µM],-0.1%,-2.6%,.,.,-2.3%
COc1ccc(NC(=O)CN2CCN(CC(=O)Nc3ccc(OC)cc3)CC2)cc1,1.3%,.,.,2.3%,1.3%,.,.,7.6%
COC(=O)Cn1cc(C=C2C(=O)N(C)C(=O)N(C)C2=O)c2ccccc21,3.9%,.,.,0.6%,5.4%,.,.,-13.3%

# Going on with the list:
SMILES,SARS PLpro yeast,Cruzain noTriton,Marburg entry inh,2A StopGo,NS1 function inh,Cruzain inh Det,Lassa entry inh,RE007 growth inh
[O-][N+]12CC[N+]([O-])(CC1)c1ccccc12,3.0%,-2.0%,?,-10.1%,-0.9%,5.0%,17.0%,15.0%
COc1ccccc1NC(=O)/C(=C/c1ccncc1)NC(=O)c1ccccc1,0.3%,.,4.4%[46.1 µM],52.3%[activator],21.4%,.,-5.8%[46.1 µM],6.2%
Cc1cc(Cl)ccc1N(CC(=O)N=Nc1c(O)[nH]c2ccccc12)S(C)(=O)=O,-15.7%,22.6%,-4.3%,?,12.2%,-6.9%,2.5%,6.0%
CNC(=O)NC(=O)CSc1ccc(NC(C)=O)cc1,-0.3%,-6.6%,17.4%[46.1 µM],-20.8%,-3.0%,1.4%,-7.3%,10.2%
O=C(CCc1nnc2n(Cc3ccc(Cl)cc3)c(=O)c3ccccc3n12)NCCCN1CCOCC1,2.2%,.,.,-7.5%,-6.2%,.,.,-5.7%
Cc1ccc2cc(CN(CC(C)C)C(=O)C3CCCO3)c(=O)[nH]c2c1 (stereo not drawn),2.0%,-0.2%,7.2%,7.7%,1.4%,-2.4%,0.9%,5.0%
Cn1nc(-c2ccc(Cl)cc2)c2cc(C(=O)NCCCN3CCOCC3)sc21,-10.2%,12.0%,.,0.0%,-8.9%,-9.2%,.,-4.5%
COc1cccc(NC(=O)C2CCCN(S(=O)(=O)c3ccc4[nH]c(=O)ccc4c3)C2)c1 (stereo not drawn),.,-0.2%,.,-14.5%,.,-2.3%,10.4%[46.1 µM],.
CN(C)S(=O)(=O)c1ccc(C(=O)OCC(=O)c2ccc(OC(F)F)cc2OC(F)F)cc1,1.9%,0.7%,0.0%&0.0%[46.1 µM],-8.1%,3.6%,0.2%,?,0.1%
COCCn1c(C)cc(C(=O)COC(=O)/C=C/c2cccc(OC)c2)c1C,-2.2%,.,0.1%[46.1 µM],-4.2%,-1.9%,.,-9.6%,1.9%
CCOC(=O)N1CCC(=NNC(N)=O)CC1,-0.4%,.,-9.5%[46.1 µM],-6.6%,.,.,21.9%[46.1 µM],1.1%
Cc1onc(-c2ccccc2)c1C(=O)N(Cc1ccco1)Cc1cccs1,-1.1%,.,?,-27.0%,-31.2%,.,?,4.8%
COc1cc(CN2CCC(Cc3ccccc3)CC2)c([N+](=O)[O-])cc1OC,-3.6%,.,?,-27.5%,-24.1%,.,-2.9%,5.9%
COc1ccccc1N1CCN(S(=O)(=O)c2ccc(-n3cnnn3)c(C)c2)CC1,7.4%,-2.3%,?,?,5.5%,-3.2%,-11.1%,46.7%
Cc1ccccc1NC(=O)Cn1c(O)c(N=NC(=O)c2ccccc2O)c2ccccc21,13.0%,3.3%,-1.1%,-14.0%,4.1%,-11.4%,12.1%,-2.3%
O=C(Cc1ccc(F)cc1)N1CCC2(CC1)NCCc1[nH]cnc12,2.9%,.,.,-8.7%,2.1%,.,.,2.3%
CN(C(=O)c1ccccc1)c1ccccc1C(=O)NCCc1ccccc1,0.6%,.,0.0%[46.1 µM],0.7%,-2.6%,.,21.8%[46.1 µM],15.2%
CC(C)(C)NC(=O)COC(=O)c1ccc(Cl)nc1,0.5%,.,6.9%[46.1 µM],18.9%,.,.,-0.8%[46.1 µM],-6.6%
O=C(O)C1=C[C@@H](C2CCCCC2)C[C@@H](OCCCCO)O1,-1.9%,.,.,-7.6%,-0.1%,.,.,7.6%
Cc1ccc(C(C)C)c(OCC(O)CN2CCN(CCO)CC2)c1 (stereo not drawn),15.2%,-2.4%,-11.2%,-17.0%,-4.2%,1.3%,7.7%,1.1%
CCOc1cc(-c2ccc(OC(=O)c3ccccc3Cl)c(OC)c2)cc(=O)c2c(C)oc(C)c12,.,?,-4.1%[46.1 µM],-17.4%,.,-7.7%,-15.2%[46.1 µM],.
CC(C)(C)C(=O)Nc1ccnn1C1CCN(C(=O)c2ccc(Cl)cc2F)CC1,-1.6%,.,-4.4%,8.2%,5.6%,.,2.4%,11.3%
COc1ccc(N2CCN(C3CCCN(Cc4ccc(F)c(F)c4)C3)CC2)cc1 (stereo not drawn),-0.5%,.,.,-29.9%,-1.0%,.,.,6.0%
Cc1ccc(Cl)cc1NC(=S)Nn1cnnc1,?,.,.,-22.7%,21.0%,.,.,3.1%
Nc1c(N(CCC2=CCCCC2)C(=O)c2ccc([N+](=O)[O-])o2)c(=O)[nH]c(=O)n1Cc1ccccc1,1.4%,.,-8.2%,-26.0%,.,.,?,1.4%
COc1ccc(-c2cc(C(=O)N/N=C(\C)c3cccnc3)c3cc(C)ccc3n2)cc1OC,16.8%,.,.,-29.4%,12.8%,.,.,-15.4%
CCCS/C(N)=N/N=C/c1cc(C)ccc1O,15.9%,-18.0%,?,3.8%,-4.1%,-13.9%,-17.6%,?

# As entered above.
# Marburg entry inh, Nc1c(N(CCC2=CCCCC2)C(=O)c2ccc([N+](=O)[O-])o2)c(=O)[nH]c(=O)n1Cc1ccccc1 → -8.2%
# RE007 growth inh, Cc1ccc(Cl)cc1NC(=S)Nn1cnnc1 → 3.1%

# Structural class: the compounds so far containing a nitro group on carbon.
SMILES,SARS PLpro yeast,Cruzain noTriton,Marburg entry inh,2A StopGo,NS1 function inh,Cruzain inh Det,Lassa entry inh,RE007 growth inh
COc1cc(CN2CCC(Cc3ccccc3)CC2)c([N+](=O)[O-])cc1OC,-3.6%,.,?,-27.5%,-24.1%,.,-2.9%,5.9%
Nc1c(N(CCC2=CCCCC2)C(=O)c2ccc([N+](=O)[O-])o2)c(=O)[nH]c(=O)n1Cc1ccccc1,1.4%,.,-8.2%,-26.0%,.,.,?,1.4%
